Screening data from PubChem.
VDR inhibitor – inhibitors of human vitamin D receptor; P11473; VDR-SRC2-3 peptide fluorescence polarization, 2 h; Potency, µM, for inactives: max response, negative = inhibition, actives largely listed as inhibitors; 0.93% of 400,000 active; AID 504847; active = well fitted inhibition curve with a large enough effect; inconclusive = small, poorly fitted or top-dose-only effect, or another doubt; inactive = no such curve, though single readings can be large or run the other way; also: series mostly up to about 120 µM
Target sequence (P11473 whole entry, looked up): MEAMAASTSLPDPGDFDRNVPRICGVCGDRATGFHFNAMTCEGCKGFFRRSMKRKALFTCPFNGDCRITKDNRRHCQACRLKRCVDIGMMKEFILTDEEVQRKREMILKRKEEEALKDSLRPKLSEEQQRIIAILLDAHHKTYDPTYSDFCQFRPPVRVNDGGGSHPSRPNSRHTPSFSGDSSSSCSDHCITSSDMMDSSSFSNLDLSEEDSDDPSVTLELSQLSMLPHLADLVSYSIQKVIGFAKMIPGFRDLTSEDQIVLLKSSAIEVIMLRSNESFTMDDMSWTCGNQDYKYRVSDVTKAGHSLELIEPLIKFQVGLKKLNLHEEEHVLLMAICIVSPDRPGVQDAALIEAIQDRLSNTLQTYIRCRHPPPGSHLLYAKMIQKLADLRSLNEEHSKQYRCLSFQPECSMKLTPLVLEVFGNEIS
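Compounds are added to VDR with labelled SRC2-3 coactivator peptide and held 2 h at room temperature. Inhibition of the VDR–peptide interaction is then read as a change in fluorescence polarization.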
* marks the source's active call; other numbers are inactive results; ? = inconclusive; & = joins results of further samples. % is scaled to controls: 0 for no effect and ±100 for the full control effect; potency is read from the fitted curve at half-maximal effect. An excerpt; rates above refer to the full screens.

SMILES	VDR inhibitor
Cc1ccc(S(=O)(=O)Oc2ccc(/C=C(/NC(=O)c3ccccc3)C(=O)NCCC(=O)O)cc2)cc1	15%
O=C(OCc1nnc(-c2ccccc2)o1)c1ccco1	12%
COc1ccc(C(=O)NNS(=O)(=O)c2ccccc2)cc1	9%
CN1C(=O)c2ccccc2Sc2ccc(NC(=O)N3CCN(c4cccc(Cl)c4)CC3)cc21	9%
CCn1c(CNc2ccc(F)cc2)nnc1SCC(=O)Nc1ccc(OC)cc1	2%
CCN1C(=O)[C@@H]2[C@@H](c3ccc(-c4ccc5c(c4)OCO5)cc3)N3CCCC[C@@]3(C(=O)OC)[C@@H]2C1=O	-7%
COc1ccc2c(c1)C(=O)[C@H](OC(=O)NCCc1ccc(OC)c(OC)c1)[C@@H](c1ccc(OC)c(Br)c1)O2	-2%
CCOC(=O)c1ccc(NS(=O)(=O)c2cn(C)cn2)cc1	-19%
C[C@]12CC[C@@H]3c4ccc(O)cc4CC[C@H]3[C@@H]1C[C@@H](O)[C@@H]2O[C@@H]1O[C@H](C(=O)O)[C@@H](O)[C@H](O)[C@H]1O	-8%
CCC(C)NC(=O)Cn1c(=O)n(-c2cc(OC)cc(OC)c2)c(=O)c2ccccc21 (centres undefined)	-9%
O=C(Cn1ncc2c3ccccc3n(Cc3ccccc3F)c2c1=O)NCCc1ccc(Cl)cc1	6%
COCCNC(=O)COc1coc(CN2CCN(Cc3ccccc3)CC2)cc1=O	0%
COc1ccc(Cl)cc1NC(=O)CN(C)CC(=O)N1CC(=O)Nc2ccccc21	10%
C[C@@H](NC(=O)c1nc[nH]c1C(=O)NC1CCN(C(=O)OC(C)(C)C)CC1)c1ccccc1	3%
CCC1CN(C(=O)NCc2ccc(F)cc2)c2cc(C)ccc2O1 (centres undefined)	6%&16%
Cc1c(Cl)cccc1NC(=O)Nc1cnccn1	1%
CCC(C)C(=O)Nc1ccccc1N1CCN(c2ccc(F)cc2)CC1 (centres undefined)	-6%
O=C(NCc1ccco1)c1cccc(F)c1	12%
CC(=O)Nc1ccc(/C=C(\C#N)C(=O)NC2CCCCC2C)cc1 (centres undefined)	-3%
COc1cccc(CNC(=O)C(Cc2ccccc2)NS(=O)(=O)c2ccc3c(c2)CCN3C(C)=O)c1 (centres undefined)	-5%
Cc1ccc(S(=O)(=O)N2CCN(C(=O)COc3ccc(Br)cc3)CC2)cc1	-4%
Cc1ccc(-c2nc(N3CCOCC3)sc2C(=O)N2CCCCC2)cc1	?
O=C(OCC(=O)N1CCCc2ccccc21)c1cc(Cl)ccc1O	11%
CC1Cc2ccccc2N1S(=O)(=O)c1cccc(C(=O)NCCCO)c1 (centres undefined)	19%
Nc1cc(N2CCCCC2)c([N+](=O)[O-])cc1Cl	-3%
COc1cc2c(cc1OC)CN(C(=O)c1ccc(Cl)c(S(=O)(=O)N3CCCC3)c1)CC2	6%
O=C1CC(N2CCN(Cc3ccccc3)CC2)C(=O)N1c1ccc2c(c1)OCCO2 (centres undefined)	4%
COc1ccccc1-n1c(-c2ccc(NS(C)(=O)=O)cc2)n[nH]c1=S	-2%
CCOC(OCC)c1cc2ccccc2cn1	-20%
O=C(CCOc1ccccc1)OCC(=O)c1cc2ccccc2o1	5%
Cc1nc2ccccn2c1C(=O)NN=C1CCN(C)CC1	-27%
CCOC(=O)C1=C(CSCC(=O)OC)NC(=O)NC1c1cc(C)ccc1C (centres undefined)	-10%
COCCCN1C(=O)C2C(C(=O)Nc3cccc(Cl)c3)C3C=CC2(O3)C1C(=O)NC1CCCCC1 (centres undefined)	-4%
CC(=O)N1CCC2(CCCN(c3ccc(-c4ccccc4)cc3)C2)CC1	?
COc1ccc(C(C)=O)cc1CSCCC(=O)O	-3%
COc1ccc(-c2c(C)nn3c(C(F)(F)F)cc(-c4ccc(Br)cc4)nc23)cc1	9%
CCOC(=O)C1CCN(S(=O)(=O)c2cccc3nonc23)CC1	-8%
CCOc1ccc(CCNC(=O)C2CCN(S(=O)(=O)c3ccc(C)cc3)CC2)cc1OCC	2%
CCOC(=O)c1c(NC(=O)COc2ccccc2Br)sc2c1CCCCC2	89µM*
O=C(CCCN1C(=O)c2ccccc2C1=O)NCCCN1CCOCC1	-4%
Cn1cc([N+](=O)[O-])cc1-c1nc2ccccc2n1C	-3%
COc1cccc(C2/C(=C(\O)c3ccc4c(c3)OCCO4)C(=O)C(=O)N2c2nnc(C)s2)c1 (centres undefined)	-3%
NC(=O)C1CCN(S(=O)(=O)c2ccc(N3CCCCS3(=O)=O)cc2)CC1	6%
COc1ccc2c(c1)C(C)=CC(C)(C)N2S(=O)(=O)c1ccc(NC(C)=O)cc1	1%
CN(CCc1ccccc1)C(=O)c1cccc(NC(=O)Cc2cccc(NC(=O)C3CCCN(C(=O)C4CCCC4)C3)c2)c1 (centres undefined)	3%
CCOC(=O)Cc1csc(NC(=O)CSc2nnc(C3CC3)n2C)n1	-10%
C/C(Cl)=C\CSc1nnc2n(N)c(=O)c3ccccc3n12	-9%
Cc1ccnc(NC(=O)c2cccc(NC(=O)COc3ccccc3)c2)c1	8%
CCOC(=O)c1c(NC(=S)Nc2ccc(Cl)cc2)sc2c1CCN(C)C2	-26%
COc1ccc2c(c1)O/C(=C\c1sccc1C)C2=O	-5%
COCCCn1c(SCc2ccc(OC)cc2)nc2cc(OC)c(OC)cc2c1=N	0%
CCCCNC1C(CC)C(CCC)C(C#N)(C#N)C1(C#N)C#N (centres undefined)	45µM*
CC(OC(=O)Cn1c(C(F)(F)F)nc2ccccc21)C(=O)N1CCCc2ccccc21 (centres undefined)	14%
CCOC(=O)C1CCCN(S(=O)(=O)c2ccc3[nH]c(=O)ccc3c2)C1 (centres undefined)	1%
COCCCNCCCCOc1ccc(Br)cc1C	-20%
COc1ccc(CNC(=O)CCNS(=O)(=O)c2ccc3c(c2)CCCC(=O)N3)cc1	10%
O=C(CSc1nnc(NC(=O)c2c(F)cccc2Cl)s1)Nc1ccccc1F	-7%
Cc1occc(=O)c1O	-2%&13%
O=C(O)c1ccc(CSc2nc3ccc(NC(=O)c4ccccc4C(=O)O)cc3s2)cc1	18%
Cn1cc(/C=C(\C#N)C(=O)Nc2ncc(Cc3ccc(Cl)cc3)s2)c2ccccc21	0%

Additional results
molecule	VDR inhibitor
Cc1ccc(C)c2[nH]c(=O)c(CCNC(=O)CCc3ccccc3)cc12	-18%
O=C(Nn1cnnc1)c1ccccc1Cl	-11%
COc1cccc(CN2CCN(Cc3nc(-c4cccc(F)c4F)oc3C)CC2=O)c1	-11%
Cc1ccc(Cc2cnc(N)s2)o1	-6%
CCCCc1cc(C)c(S(=O)(=O)c2ccccc2C)c(=O)[nH]1	4%
Cc1ccc(Nc2nc(C)c(CCC(C)C)c(=O)[nH]2)cc1	-5%
NC(=O)c1ccsc1NC(=O)CCS(=O)(=O)c1ccc(F)cc1	-7%
COC(=O)CSc1nnc(CNC(=O)c2ccccc2OC)n1C	-17%
Cc1cc(C)c2cc(C#N)c(NCCNC(=S)NCCCN3CCOCC3)nc2c1	9%
CC(C)(C)NC(=O)CSCc1c(Cl)cccc1Cl	-16%
O=C(NCC1CCCO1)C(c1cccs1)N(Cc1ccccc1)C(=O)c1ccc(-c2ccccc2)[nH]1 (centres undefined)	-5%
Cc1cccc(NC(=O)c2cc(S(=O)(=O)N3CCc4ccccc43)ccc2F)c1C	2%
Cc1cc(C)cc(NC(=O)c2ncn(-c3ccccc3)n2)c1	-6%
COc1ccc2nc(NC(=O)CN(c3ccc(C)cc3)S(=O)(=O)c3c(C)nn(C)c3C)sc2c1	4%
O=C(NCCN1CCN(c2ccccc2F)CC1)c1ccc2nc3ccccc3c(=O)n2c1	23%
CCn1c(O)c(/C=N/N=C/c2ccccc2)c2ccc(C3=NNC(=O)CC3)cc21	-30%
CC1CCCN(S(=O)(=O)c2ccc(C(=O)NC(C)c3ccccc3)cc2)C1 (centres undefined)	?
CCOC(=O)c1ccc(NC(=O)c2c(NCc3cccs3)sc3c2CCCCC3)cc1	?
COc1ccc2nc(NNC(=O)C3COc4ccccc4O3)sc2c1 (centres undefined)	-7%
COc1cccc(-n2nc(C(=O)N3CC(C)CC(C)C3)c3ccccc3c2=O)c1 (centres undefined)	3%
CCNc1nc(Oc2ccc(=O)n(-c3ccccc3)n2)nc(N(C)C)n1	-21%&4%
Cc1cc(CNC(=O)COc2ccccc2)c2ccccc2n1	3%
CS(=O)(=O)n1nc(-c2ccccc2)nc1NCc1ccco1	-2%
Cc1cc(C)c(C)c(OC(=O)c2sc(Cl)nc2C)c1	?
CC(C)Cn1cc(C(=O)N2CCN(c3ccccn3)CC2)c2c3ccccc3n(C)c2c1=O	-23%
O=C(Nc1ccc(F)c(F)c1)c1cccnc1	-8%
Cc1ccc(C(=O)Nc2cccc(NC(=O)CN3CCCCC3)c2)cc1	-7%
CCSc1nnc(-c2ccc(S(=O)(=O)N3CCOCC3)cc2)n1C	-2%
CCCCN(C)S(=O)(=O)c1ccc(C(=O)Nc2nnc(CSC)o2)cc1	1%
Cc1cc(=O)oc2cc(O)cc(O)c12	2%
COc1ccc(NC(=O)c2ccc(OC(=S)N(C)c3ccc(OC)cc3)cc2)cc1	6%
O=c1c(CCc2ccccc2)nc2cncnc2n1Cc1ccccc1Cl	?
O=C(Nc1cccc(-c2nnc(-c3ccco3)o2)c1)c1ccccc1	3%
COc1ccc(NC(=O)CCCCCN2C(=O)CCC2=O)cc1Cl	-21%
CCOc1cccc(C2Nc3ccccc3-c3cc(C)nn32)c1O (centres undefined)	18%
CCCCOC(=O)c1ccc(NC(=O)CSc2nnnn2C)cc1	4%
CC1CC(=O)N(CC(=O)Nc2cccc(Cl)c2)c2ccccc2S1(=O)=O (centres undefined)	5%
O=C(c1ccc(Cl)c(S(=O)(=O)N2CCCC2)c1)N1CCN(c2ccccn2)CC1	0%
COc1cc2[nH]c(C(=O)N3CCC(Cc4ccccc4)CC3)cc2c(OC)c1OC	20%
CNC(=O)C1=C(C)NC(=S)NC1c1cc2c(cc1OC)CCCC2 (centres undefined)	-11%
COc1cc(-c2nc(-c3ccccc3)c(-c3cccs3)[nH]2)cc(OC)c1OC	5%
CC(=O)c1ccc(NS(=O)(=O)c2ccc(-c3cnc(C4CC4)o3)cc2)cc1	6%&3%
COc1ccccc1C(=O)Nc1ccccc1N1CCCCC1	-7%

Part of the list above, as labelled records:
mol: O=C(Nc1ccc(F)c(F)c1)c1cccnc1
- VDR inhibitor = -8%

mol: CCCCOC(=O)c1ccc(NC(=O)CSc2nnnn2C)cc1
- VDR inhibitor = 4%

mol: CC1CC(=O)N(CC(=O)Nc2cccc(Cl)c2)c2ccccc2S1(=O)=O (centres undefined)
- VDR inhibitor = 5%

31 neighbouring records already listed:
molecule	VDR inhibitor
CC(C)(C)NC(=O)CSCc1c(Cl)cccc1Cl	-16%
O=C(NCC1CCCO1)C(c1cccs1)N(Cc1ccccc1)C(=O)c1ccc(-c2ccccc2)[nH]1 (centres undefined)	-5%
Cc1cccc(NC(=O)c2cc(S(=O)(=O)N3CCc4ccccc43)ccc2F)c1C	2%
Cc1cc(C)cc(NC(=O)c2ncn(-c3ccccc3)n2)c1	-6%
COc1ccc2nc(NC(=O)CN(c3ccc(C)cc3)S(=O)(=O)c3c(C)nn(C)c3C)sc2c1	4%
O=C(NCCN1CCN(c2ccccc2F)CC1)c1ccc2nc3ccccc3c(=O)n2c1	23%
CCn1c(O)c(/C=N/N=C/c2ccccc2)c2ccc(C3=NNC(=O)CC3)cc21	-30%
CC1CCCN(S(=O)(=O)c2ccc(C(=O)NC(C)c3ccccc3)cc2)C1 (centres undefined)	?
CCOC(=O)c1ccc(NC(=O)c2c(NCc3cccs3)sc3c2CCCCC3)cc1	?
COc1ccc2nc(NNC(=O)C3COc4ccccc4O3)sc2c1 (centres undefined)	-7%
COc1cccc(-n2nc(C(=O)N3CC(C)CC(C)C3)c3ccccc3c2=O)c1 (centres undefined)	3%
CCNc1nc(Oc2ccc(=O)n(-c3ccccc3)n2)nc(N(C)C)n1	-21%&4%
Cc1cc(CNC(=O)COc2ccccc2)c2ccccc2n1	3%
CS(=O)(=O)n1nc(-c2ccccc2)nc1NCc1ccco1	-2%
Cc1cc(C)c(C)c(OC(=O)c2sc(Cl)nc2C)c1	?
CC(C)Cn1cc(C(=O)N2CCN(c3ccccn3)CC2)c2c3ccccc3n(C)c2c1=O	-23%
O=C(Nc1ccc(F)c(F)c1)c1cccnc1	-8%
Cc1ccc(C(=O)Nc2cccc(NC(=O)CN3CCCCC3)c2)cc1	-7%
CCSc1nnc(-c2ccc(S(=O)(=O)N3CCOCC3)cc2)n1C	-2%
CCCCN(C)S(=O)(=O)c1ccc(C(=O)Nc2nnc(CSC)o2)cc1	1%
Cc1cc(=O)oc2cc(O)cc(O)c12	2%
COc1ccc(NC(=O)c2ccc(OC(=S)N(C)c3ccc(OC)cc3)cc2)cc1	6%
O=c1c(CCc2ccccc2)nc2cncnc2n1Cc1ccccc1Cl	?
O=C(Nc1cccc(-c2nnc(-c3ccco3)o2)c1)c1ccccc1	3%
COc1ccc(NC(=O)CCCCCN2C(=O)CCC2=O)cc1Cl	-21%
CCOc1cccc(C2Nc3ccccc3-c3cc(C)nn32)c1O (centres undefined)	18%
CCCCOC(=O)c1ccc(NC(=O)CSc2nnnn2C)cc1	4%
CC1CC(=O)N(CC(=O)Nc2cccc(Cl)c2)c2ccccc2S1(=O)=O (centres undefined)	5%
O=C(c1ccc(Cl)c(S(=O)(=O)N2CCCC2)c1)N1CCN(c2ccccn2)CC1	0%
COc1cc2[nH]c(C(=O)N3CCC(Cc4ccccc4)CC3)cc2c(OC)c1OC	20%
CNC(=O)C1=C(C)NC(=S)NC1c1cc2c(cc1OC)CCCC2 (centres undefined)	-11%
